High-throughput results from PubChem.
A1 inh – inhibitors of the anti-apoptotic protein A1, read as caspase activation. MEF A1-2A-BIM cells, Caspase-Glo 3/7 luminescence, 3 h; percent of clofoctol response, vehicle zero. caspase activation, % (test concentration not listed). hit rate 0.066% among 330,000. AID 2462;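 active = over half of replicate activation scores above 10%, or exactly half above 10 with the replicate mean above 10; inconclusive = replicate mean below 10 yet half the replicates above 10; inactive = over half of replicates below 10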;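 also: wells of about 30 µL received 50 nL stock; many hits fall short of the cut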
Beta cell apopt – blocks beta cell apoptosis. INS-1E cytokine-induced death, ATP luminescence, 48 h; percent of positive-control rescue, neutral wells zero. protection from apoptosis, % (test concentration not listed). hit rate 0.8% among 300,000. AID 435005;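 active = all replicates at 75% or more, or half of them and the mean; inconclusive = half reach 75% but not the mean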;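 also: 0% = cytokine-treated negative control wells and 100% = positive control rescue; higher means more ATP so stronger rescue from cytokine killing; wells of about 40 µL received 100 nL stock; the first replicate is given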
Calb FLC – affects C. albicans growth with fluconazole | C. albicans CaCi-2 (fluconazole-resistant clinical isolate) + fluconazole, Alamar Blue growth, 48 h | growth inhibition, % (concentration not given with the values) | hit rate 0.57% among 300,000 | AID 1979;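 active = most replicates above 75%; inconclusive = exactly half above 75%; inactive = most below 75%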;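 also: all wells also contain fluconazole at 8 µg/ml as a sub-toxic cotreatment; 0% = median of DMSO wells and 100% = median of geldanamycin control wells; wells of about 8 µL received 7.5 nL stock; the first replicate is given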
MLL AF4-AF9 inh – inhibitors of human MLL-AF4/AF9 interaction | AlphaScreen, biotin-AF4 peptide binding to FLAG-AF9 | inhibition, % at 10 µM | P42568 | hit rate 0.47% among 350,000 | AID 651704;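 active = every replicate reaching a set inhibition limit, whatever the replicate mean, cut at about 25% in these data; inconclusive = mean inhibition reaches that limit but some replicates miss it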;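 also: 0% = plate neutral control median and 100% = total signal loss; the record names both 10 and 1 µM as test concentration; the first replicate is given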
Target sequence (P42568 whole entry, looked up): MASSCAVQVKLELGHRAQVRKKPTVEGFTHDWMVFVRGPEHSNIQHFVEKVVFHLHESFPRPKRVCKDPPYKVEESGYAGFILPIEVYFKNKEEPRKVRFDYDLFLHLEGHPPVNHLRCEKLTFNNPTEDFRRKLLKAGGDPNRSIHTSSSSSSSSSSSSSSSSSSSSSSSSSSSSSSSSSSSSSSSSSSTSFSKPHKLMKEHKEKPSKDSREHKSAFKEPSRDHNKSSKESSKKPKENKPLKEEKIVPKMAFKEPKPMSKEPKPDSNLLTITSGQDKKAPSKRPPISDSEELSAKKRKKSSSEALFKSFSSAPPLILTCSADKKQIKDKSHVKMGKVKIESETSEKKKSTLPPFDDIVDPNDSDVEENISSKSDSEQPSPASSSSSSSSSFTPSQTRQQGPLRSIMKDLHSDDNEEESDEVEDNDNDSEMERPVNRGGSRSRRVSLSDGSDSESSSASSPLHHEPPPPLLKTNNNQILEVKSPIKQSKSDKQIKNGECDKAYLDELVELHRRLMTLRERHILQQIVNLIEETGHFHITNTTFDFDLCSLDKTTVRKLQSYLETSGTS
RanGTP-Impb inh – inhibitors of RanGTP-importin-beta interaction, primary screen, biochemical, FRET, CFP-Ran, YFP-importin-beta, homogeneous; hit rate 1.1% among 300,000; inhibition, % (concentration not given with the values); cell-free CFP-Ran/YFP-importin-beta FRET ratio;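 active = most replicates above 15%; inconclusive = exactly half above 15%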;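 also: 0% = DMSO wells and 100% = Ran loaded with GDP instead of GTP; wells of about 40 µL received 100 nL stock; the first replicate is given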
Vif TR-FRET – HIV-1 Vif–A3G interaction blockers – biochemical, TR-FRET, GST-Vif 1-94, biotin-A3G peptide, dose response retest, primary screen (AID 1117319); one-dose inhibition, %; IC50 in µM for titrated hits; hit rate 0.57% among 260,000; TR-FRET GST-Vif / biotin-A3G peptide binding; higher % means a stronger effect; test concentration not given here; strong numbers were not always called active;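 active = above the screen mean plus three standard deviations and confirmed in dose response; inconclusive = results disagree or hit not tested in dose response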;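 also: Vif residues 1-94 fused to GST binding biotinylated APOBEC3G peptide 110-148; 0% = full assay without inhibitor and 100% = GST in place of GST-Vif; retest series ran down from 100 µM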
T cruzi inh – T. cruzi replication inhibition; inhibition, % (concentration not given with the values); T. cruzi beta-gal in NIH3T3, luminescence, 90 h; hit rate 1.4% among 300,000;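 active = mean inhibition across valid replicates above about 55%, limit read from the data; inconclusive = mean below that limit but half or more replicates reach it; inactive = mean below it, under half of replicates reach it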;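 also: signal also drops with host cell toxicity which is not excluded here; 0% = plate median of DMSO wells and 100% = zero luminescence signal; higher percent means less beta-gal luminescence so fewer parasites; stock transfer was 50 nL into about 50 µL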
LANA-H2B inh – blocks KSHV LANA binding to histone H2A/H2B; cell-free LANA-H2A/H2B peptide, fluorescence polarization; Q9QR71; inhibition, % (no concentration beside the values); hit rate 0.6% among 320,000; in the data active = inhibition mostly above about 10%, no sharp cut-off; inactive = mostly below about 6.7%;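 also: stock transfer was 7.5 nL into about 10 µL; 0% = median of vehicle wells and 100% = median of positive control wells; one replicate is shown; the record names a cut of 25% in any replicate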
* = called active by the depositor; u = inconclusive; x = not tested or not shown; & = joins results of further samples.

SMILES	A1 inh	Beta cell apopt	Calb FLC	MLL AF4-AF9 inh	RanGTP-Impb inh	Vif TR-FRET	T cruzi inh	LANA-H2B inh
O=C(CCc1nnc(CCCCc2ccccc2)o1)NC(c1cccnc1)C(F)(F)F (stereo not given)	-0.8	0	-13	-1.5	-2.5	1%	4	-1.1
C#CCOCCOCCOCCNc1nc(N2CCN(C(=O)C([C@@H](C)O)n3cc([C@@H](N)CCCCN)nn3)CC2)nc(N2CCN(C(=O)[C@H](CC(N)=O)n3cc([C@@H](N)C(C)C)nn3)CC2)n1 (stereo not given in full)	0.1	-7	x	15	x	-2%	x	-4.8
O=C(COC(=O)C1CC1)NCCNC(=O)COC(=O)C1CC1	0.0	-5	x	-1.4	2.0	6%	-3	2.5
O=C(N/N=C/c1cccs1)c1ccc(NC(=O)c2ccccc2Cl)cc1	0.6	3	22	x	-0.3	9%	-11	1.5
COc1cc(OC)c(OC)cc1C#N	0.0	0	5	-17	0.9	3%	-4	3.2
Cc1ccccc1CC1(CO)CCCN(C(=O)c2ccc3ncccc3c2)C1 (stereo not given)	0.0	-2	17	-0.2	6.7	-4%	20	3.1
COc1cccc(N2CCN(c3ccc4nnc(CCC(=O)Nc5ccccc5OC)n4n3)CC2)c1	1.0	1	29	6.3	-0.1	x	18	3.1
c1ccc(-c2noc(-c3ccc4c(c3)OCO4)n2)cc1	-12	13	-4	-1.0	-2.2	x	-9	-6.3
CCC(C)NS(=O)(=O)c1ccc(OCC(=O)N2CCC(C)CC2)cc1 (stereo not given)	-0.7	9	0	5.5	-0.8	x	-2	1.2
CC(C)C[C@H](NC(=O)c1nc[nH]c1C(=O)NCC(=O)OCc1ccccc1)C(=O)OCc1ccccc1	-0.6	-6	3	x	8.2	x	5	0.0
CSCCC(N=C(NS(=O)(=O)c1ccc(C)cc1)c1ccccc1)C(=O)O (stereo not given)	0.6	-1	-2	-11	1.1	-4%	1	-6.3
COc1ccc(C2CC(c3ccc(Cl)cc3)=NN2C(C)=O)cc1 (stereo not given)	-2.5	2	-40	2.1	1.2	-7%	-8	2.3
COc1ccccc1-c1nc(C(N)=O)c2[nH]c(=O)n(-c3cccc(C)c3)c2n1	-0.3	1	11	x	3.4	3%	12	-3.6
O=C(NC1CCCC1)C1CCCN(C(=O)Nc2ccccc2)C1 (stereo not given)	0.3	-10	1	1.1	-0.9	x	2	3.7
COc1cc(CSc2ncn[nH]2)c(OC)cc1CSc1ncn[nH]1	-0.5	-8	-20	x	0.6	3%	1	3.3
COc1ccc(N(CC(O)CN2C(=O)NC(C)(C)C2=O)S(=O)(=O)c2ccc(C)cc2)cc1 (stereo not given)	-0.4	x	15	x	0.1	1%	-21	-7.3
O=C(Nc1cc2c(cc1C(=O)O)OCCCO2)c1ccc(C(F)(F)F)cc1	0.6	0	-2	-1.2	-0.6	x	-23	5.1
CCCCS/C(N)=N/N=C/c1ccccc1O	-3.0	-9	-45	x	3.8	u	9	0.2
CC(C)CCC(C)NC(=O)C1CCN(S(=O)(=O)/C=C/c2ccccc2)CC1 (stereo not given)	0.3	2	5	0.3	1.6	x	-9	1.8
O=C(/C=C/c1ccco1)NCCc1ccccc1	0.6	-6	-5	6.7	-1.3	0%	-28	0.3
COc1cccc(OC)c1OCC(O)CN1CCN(c2ccccc2)CC1 (stereo not given)	0.0	-12	27	x	3.1	-6%	13	4.1
O=C(c1cc2cc(Br)ccc2[nH]1)N1CCc2ccccc21	-1.3	-1	0	-2.2	2.9	-31%	2	5.6
CCOc1ccc(NC(=O)c2cc(OC)nc3ccccc23)cc1	0.4	25	-6	-2.0	4.4	-8%	10	-4.7
COc1cccc(CN2CC(C(=O)NCCc3ccc(C)o3)CCC2=O)c1 (stereo not given)	0.0	-3	-4	-1.0	-1.4	-5%	-15	-0.6
O=C(COc1ccccc1)N/N=C/c1cc2c(cc1[N+](=O)[O-])OCO2	0.5	3	-5	x	-3.9	3%	-5	4.9
Cc1ccc(CNC(=O)COC(=O)C2CCC2)cc1	0.5	-16	x	-15	x	-16%	x	-0.6
Cc1ccc(NC2CCCN(C(=O)c3cnc4ccccn4c3=O)C2)cc1C (stereo not given)	2.6	-5	2	-2.2	2.9	x	-20	-0.2
CCOc1ccc(NC(C)C(=O)N/N=C/c2cccs2)cc1 (stereo not given)	0.8	-4	-5	x	1.5	3%	-11	-0.8
COc1ccc(CN2CCN(Cc3cccc(Oc4ccccc4)c3)CC2)c(OC)c1OC	2.3	-7	6	8.5	1.9	-1%	-4	-11
Cc1oc2c(c1C(=O)O)C(=O)c1ccccc1C2=O	-4.6	-12	10	-23	u	u	3	-4.9
O=C(COC(=O)CNC(=O)c1ccc(Br)o1)Nc1ccccc1OC(F)F	-0.2	-8	-4	-2.2	-1.1	6%	-7	-1.9
Cc1c(C=O)c2cc(OCc3ccccc3)ccc2n1C	-2.6	x	4	3.1	1.1	x	22	-3.1
N#Cc1nc(COc2cccc(Cl)c2)oc1NCc1ccncc1	-0.3	-4	-11	x	2.5	u	23	-1.2
OCCCNc1ncnc2sc3c(c12)CCN(Cc1ccccc1)C3	-1.1	-8	-11	-2.0	6.5	x	-6	-6.6
CCCN(CC(=O)Nc1ccccc1C)C(=O)/C=C/c1ccc(OCC)c(OC)c1	-0.5	-8	x	1.0	x	-2%	x	-26
Cc1occc1-c1nnc(SCC(=O)c2ccc(Cl)cc2)n1C	0.5	x	x	x	3.1	10%	-5	-6.4
Cc1ccc2nc(NC(=O)COC(=O)c3cccnc3)sc2c1	-11	0	x	-1.2	x	x	x	0.1
Cc1ccc(NC(=S)NC(=O)c2ccc(F)cc2)cc1S(=O)(=O)Nc1ccccc1Cl	-0.1	0	28	-0.8	0.4	x	-9	-3.7
N=c1oc2ccccc2cc1-c1nc(-c2ccc(Cl)cc2)cs1	0.1	3	-4	x	17*	x	-10	-2.4
CCn1cc(C(=O)OCC(=O)c2ccc(Cl)cc2)c(=O)c2ccc(C)nc21	0.6	-6	31	-1.9	-2.4	-5%	1	4.6
COc1ccc(OC)c(NC(=O)CCN2CCCC(C)C2)c1 (stereo not given)	0.4	-7	-5	x	0.2	11%	-6	-2.7
O=C(CSc1nnnn1-c1ccccc1)Nc1nsc(-c2ccc(Cl)cc2)n1	-0.7	1	3	x	-3.4	-13%	-7	-2.3
CC1CN(C(=O)CCC(=O)NC2CCCCC2)c2ccccc2S1 (stereo not given)	-0.5	-4	1	-1.1	0.9	-9%	-7	2.9
CCn1c(CCNC(=O)c2cccs2)n[nH]c1=S	-0.7	-4	-17	6.7	1.3	-5%	-14	2.3
CN(CC(=O)Nc1ccc(F)cc1)C(=O)COc1ncnc2ccccc12	0.7	-3	10	2.4	-0.5	0%	8	3.3
Cc1cc(C)cc(NC(=O)CSc2nc(=O)n3cc(C)ccc3n2)c1	0.0	-8	3	-14	2.6	-35%	-6	x
CCOC(=O)C1CCN(C(=O)c2cc(S(=O)(=O)N3CCOCC3)c(Cl)cc2Cl)CC1	0.3	1	1	x	-0.7	1%&-8%	2	4.1
Cc1c(NC(=O)CSc2ccc(Cl)cc2)cccc1-c1nc2cc(Cl)ccc2o1	-0.5	11	11	-7.9	8.2	13%	-7	1.8
CCCCS(=O)(=O)N1CN(S(=O)(=O)CCCC)C2NC(=O)NC21 (stereo not given)	0.8	-7	2	x	-0.7	1%	-7	-1.6
CCOc1ccc(CN2CCNC(=O)C2CC(=O)N(C)Cc2nonc2C)cc1 (stereo not given)	1.8	-6	0	2.5	6.6	x	0	1.3
Carrying on.
SMILES	A1 inh	Beta cell apopt	Calb FLC	MLL AF4-AF9 inh	RanGTP-Impb inh	Vif TR-FRET	T cruzi inh	LANA-H2B inh
CC1Cc2ccccc2N1C(=O)CSc1nnnn1C(C)C (stereo not given)	-0.4	3	9	x	u	15%	-5	-1.8
COc1ccccc1NS(=O)(=O)c1cc(NC(=S)Nc2cc(C)cc(C)c2)ccc1Cl	-0.5	3	24	5.6	-0.5	x	4	-2.0
COc1ccccc1N1CCN(c2ncnc3sc(C)c(-c4ccccc4)c23)CC1	-0.4	4	10	x	-5.1	x	17	-2.1
Cc1cccc(NC(=O)CSc2nnc(NC(=O)CN3CCCCC3)s2)c1	-0.1	7	-6	3.8	0.6	-13%	-13	5.6
Cc1cccc(NC(=O)c2ccc(N(C)C3CCCCC3)c([N+](=O)[O-])c2)n1	-0.6	-12	-29	x	-3.5	1%	29	-1.8
CCN(CC(=O)Nc1ccccc1C(F)(F)F)C(=O)c1ccccc1Cc1ccccc1	0.2	-6	8	-1.7	-4.5	0%	12	-0.1
CC(Oc1ccc(Br)cc1)C(=O)NCC(C)(C)N1CCOCC1 (stereo not given)	0.1	0	-2	13	0.5	0%	-8	2.6
CC(C)(C)C1CCC(=NNc2ccc(S(N)(=O)=O)cc2[N+](=O)[O-])CC1 (stereo not given)	0.1	x	-5	16	-2.2	x	12	1.3
Cc1nc2oc3c(NCC4CCCO4)ncnc3c2c2c1COC(C)(C)C2 (stereo not given)	-0.3	-5	13	x	1.9	20%	3	-1.2
Cc1ccc2c(=O)[nH]c(Cc3ccccc3C(=O)O)nc2c1	0.5	0	1	-2.6	6.0	-5%	13	2.1
Cn1cccc1/C=C1\SC(=S)N(NC(=O)c2ccc(Cl)cc2)C1=O	-0.3	-2	x	x	x	19%	x	-347
O=C(CN(Cc1ccccc1)C1=NCCS1)c1ccc(Cl)cc1	0.6	-1	2	-4.3	-3.0	x	10	4.7
CC(C)NOC(=O)c1ccc(Cl)cc1	0.1	0	-25	x	-0.3	1%	-5	-0.5
COC(=O)[C@@]12CCCCN1[C@H](c1ccc(SC3CCCCC3)cc1)[C@@H]1C(=O)N(C)C(=O)[C@@H]12	-0.1	9	13	0.0	-1.4	x	-22	-3.7
COc1cc(/C=N/Nc2nc(=O)[nH]nc2C)cc([N+](=O)[O-])c1O	0.1	3	-10	2.6	-2.6	5%	3	1.5
O=S(=O)(c1ccc2ccccc2c1)N1CCN(C(=S)Nc2ccc(F)c(Cl)c2)CC1	0.1	-3	3	x	3.6	x	-5	-1.0
CCOC(=O)C1CCCN(C(=O)CCNC(=O)Cn2ccc3ccccc3c2=O)C1 (stereo not given)	-0.1	x	-6	0.9	7.3	x	-13	1.6
Cc1cc(-c2ccco2)n(CC(=O)NCCN(C)C)n1	-0.1	0	9	4.4	-2.5	-2%	-12	-2.6
Cc1csc(NC(=O)c2cc(C)on2)n1	0.2	-3	x	-7.5	x	-10%	x	-0.4
Cn1c(=O)c2c(nc(Sc3ncnn3CC(=O)N3CCOCC3)n2C)n(C)c1=O	-0.4	2	4	5.4	0.3	27%	-6	12
Cn1cc(CNC(=O)c2sc3cccc(Cl)c3c2Cl)cn1	0.1	-2	14	x	0.8	-10%	7	-4.0
CCCOC(=O)c1ccc(Oc2cn[nH]c2-c2ccc(OCC(=O)NN)cc2O)cc1	1.1	-7	3	7.5	3.5	x	-6	-7.4
O=C(CCn1c(=O)oc2ccccc21)N1CCN(c2ccccc2F)CC1	-0.6	-6	14	x	7.6	1%	-3	-1.8
